Screening results: PubChem, National Center for Advancing Translational Sciences (NCATS)
GLA inh pH 4.5: blocks human alpha-galactosidase A at pH 4.5; P06280; purified enzyme, 4-MU-alpha-Gal fluorescence, pH 4.5; activity change, negative = inhibition, % at 105 µM; 230,000 tested, under 10 active; inconclusive = small, poorly fitted or top-dose-only inhibition, or a rising curve; inactive = flat fitted curve, though single readings scatter; no compound was filed as active;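 further: 0% = full activity with enzyme and -100% = basal without enzyme; dose as in the result columns while the protocol names 77 µM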
miR-21 reporter: miR-21 reporter, rising signal | 340,000 tested, under 10 active | HeLa miR-21 FLuc reporter, luciferase, 48 h | Potency, µM (top dose mostly 38.3 µM), inactives show at the top dose reporter change, positive = more light; active = well fitted rising curve with a large enough effect; inconclusive = small, poorly fitted or top-dose-only effect; inactive = no such curve, though single readings can be large or run the other way;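 further: % of control where 0% means no effect; miR-21 action dims this reporter so a rising signal means less miR-21 action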
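Luminescence from a firefly luciferase reporter carrying a miR-21 binding site downstream, stably expressed under a CMV promoter in HeLa cells that make miR-21 endogenously, reports miRNA modulation after 48 h compound exposure up to approximately 40uM final.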
Rango-impB inh: inhibitors of Rango-importin beta complex formation. Potency, µM (titrated, usually from 92.2 µM), for the others: top-dose inhibition of complex formation. 340,000 tested, 0.031% active. Rango CFP/YFP FRET sensor + importin beta, 45 min. Q14974. AID 540263; active = rising FRET ratio curve, often small or poorly fitted; inconclusive = mostly compound fluorescence or quenching in the first reads; inactive = flat curves in all reads;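 further: potency means the concentration at half of the fitted maximal effect; 0% = DMSO wells and 100% = buffer wells lacking importin beta; nearly all actives have a fitted effect of over 15% in size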
Target sequence (Q14974 whole entry, looked up): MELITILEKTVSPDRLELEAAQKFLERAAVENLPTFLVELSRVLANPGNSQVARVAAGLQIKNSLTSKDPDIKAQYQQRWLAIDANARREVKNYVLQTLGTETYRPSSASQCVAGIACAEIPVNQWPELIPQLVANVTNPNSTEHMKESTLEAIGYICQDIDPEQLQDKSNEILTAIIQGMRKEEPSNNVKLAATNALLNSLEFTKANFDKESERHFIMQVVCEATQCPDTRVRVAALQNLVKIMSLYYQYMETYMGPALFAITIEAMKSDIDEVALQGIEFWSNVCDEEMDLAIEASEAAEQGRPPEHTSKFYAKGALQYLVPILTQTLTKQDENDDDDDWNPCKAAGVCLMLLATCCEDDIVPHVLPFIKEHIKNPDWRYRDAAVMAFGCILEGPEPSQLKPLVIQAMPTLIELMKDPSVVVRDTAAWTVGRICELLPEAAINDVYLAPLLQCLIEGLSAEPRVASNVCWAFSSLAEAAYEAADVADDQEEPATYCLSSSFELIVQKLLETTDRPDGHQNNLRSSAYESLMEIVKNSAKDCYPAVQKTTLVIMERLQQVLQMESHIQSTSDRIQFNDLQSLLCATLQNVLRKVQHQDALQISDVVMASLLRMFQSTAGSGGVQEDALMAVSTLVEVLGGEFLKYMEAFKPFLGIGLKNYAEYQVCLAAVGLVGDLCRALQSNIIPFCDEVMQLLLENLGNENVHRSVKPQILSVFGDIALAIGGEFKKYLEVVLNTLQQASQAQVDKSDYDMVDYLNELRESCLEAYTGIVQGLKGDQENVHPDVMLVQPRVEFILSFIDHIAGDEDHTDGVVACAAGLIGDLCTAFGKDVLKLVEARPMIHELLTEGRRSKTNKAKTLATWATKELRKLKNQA
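Inhibition scored from the CFP 486 nm/YFP 530 nm FRET ratio 45 min after adding 0.125 microM importin beta to 50 nM Rango biosensor preincubated 5 min with compound (room temperature, PBS with DTT, Tween-20, BSA). No-importin wells as positive control.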
Rango release inh: inhibitors of RanGTP-induced Rango-importin beta complex dissociation | Biochemical FRET Rango-importin beta, RanGTP-induced dissociation | 340,000 tested, 0.071% active | O95149+P62826 | Potency, µM (series often up to 46.1 µM), without a hit: at the highest dose activity change, negative = inhibition; active means falling FRET ratio curve, often poorly fitted, with flat reads before Ran was added; inconclusive means other falling curves, or compound fluorescence or quenching; inactive means flat or rising ratio curve;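 further: potency means the concentration at half of the fitted maximal effect; % of control where 0% means no effect; nearly all actives have a fitted effect of over 45% in size; -100% = wells without RanGTP and RCC1; the record marks most hits as doubtful in a second field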
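FRET read at 45 min, room temperature: inhibitors block the CFP/YFP signal rise when RanGTP (0.6 uM Ran, 2 mM GTP, 0.2 uM RCC1) frees Rango (0.1 uM) from importin beta (0.25 uM). Pre-read after 5 min compound exposure flags interference.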
* hit, by the source's call; ? = inconclusive; / = not tested or not shown; & = joins results of further samples; [ ] = another dose, or the depositor's remark. This is a subset; count on the stated rates, not on these rows.

cpd	Molecule	GLA inh pH 4.5	miR-21 reporter
1	CCN(CC)S(=O)(=O)c1ccc(N2CCN(C)CC2)c(NC(=O)COc2ccc(F)cc2Cl)c1	/	/
2	O=C(NCc1ccccc1)c1cc2ccccc2oc1=O	/	-38%
3	COc1ccccc1N1CCN(C(=O)c2ccccc2NC(=O)C2CCCCC2C(=O)O)CC1 (stereo not given)	3	-3%
4	CC1=C(C(=O)NC2CCCc3c2cnn3-c2cccc(C)c2C)OCCO1 (stereo not given)	/	19%
5	O=C(CSc1nnnn1C1CCCC1)N1CCCCC1	/	-36%
6	O=C(c1ccc(F)cc1)C1CCN(C(=S)NCC2CCCO2)CC1 (stereo not given)	-3	5%
7	NC1=NC2(CCC(c3ccccc3)CC2)n2c(nc3ccccc32)N1 (stereo not given)	-2	?
8	CC1CCCC(NC(=O)COC(=O)[C@@H](NC(=O)c2ccco2)C(C)C)C1C (stereo not given in full)	8	-3%
9	FC(F)(F)c1nnc2sc(-c3ccncc3)nn12	7	1%
10	NS(=O)(=O)c1ccc(CCNC(=S)NC(=O)c2ccccc2Br)cc1	/	/

cpd	Rango-impB inh	Rango release inh
1	-2.0%	-1%
2	0.1%	10%
3	2.8%	-6%
4	-4.6%	16%
5	-1.9%	-2%
6	0.5%	0%
7	-0.2%	1%
8	5.3%	-13%
9	5.3%	13%
10	2.2%	-3%

Remaining list, next part
cpd	Molecule	GLA inh pH 4.5	miR-21 reporter
11	CC1(c2nnc(Cc3ccccc3)o2)CC(c2ccccc2)=NO1 (stereo not given)	/	/
12	Cc1onc(-c2ccccc2)c1C(=O)c1c[nH]c(C(=O)NCc2ccncc2)c1	-11	8%
13	Cc1ccc(-n2nc3c(c2NC(=O)c2c(-c4ccccc4Cl)noc2C)CSC3)cc1	-5	0%
14	O=C(Cn1cnc(S(=O)(=O)N2CCCC2)c1)Nc1cccc(F)c1	/	-5%&-2%
15	O=C(O)c1ccccc1NCc1cccnc1	/	/
16	COC(=O)C(CCCN1C(=O)c2ccccc2C1=O)(NC(C)=O)c1nnn(C)n1 (stereo not given)	-3	0%
17	O=C(CCC(=O)c1ccc(F)cc1)Nc1cccc(C(F)(F)F)c1	-4	-2%
18	O=C(C1CCN(CC2CCCCC2)CC1)N1CCCC1	3	-3%
19	COc1cc(C2Nc3ccccc3NC3=C2C(=O)CC(c2ccc(OC)c(OC)c2)C3)ccc1O (stereo not given)	-15	-9%
20	CC(O)CC(C)O (stereo not given)	/	/

cpd	Rango-impB inh	Rango release inh
11	-2.1%	-17%
12	-0.6%	24%
13	-2.2%	-21%
14	2.4%	3%
15	0.1%	-15%
16	1.2%	2%
17	2.4%	16%
18	1.7%	14%
19	-0.2%	-3%
20	-0.1%	1%

A different layout for 5 compounds above:
Fields: GLA inh pH 4.5, miR-21 reporter, Rango-impB inh, Rango release inh
13	Cc1ccc(-n2nc3c(c2NC(=O)c2c(-c4ccccc4Cl)noc2C)CSC3)cc1
  -5, 0%, -2.2%, -21%
19	COc1cc(C2Nc3ccccc3NC3=C2C(=O)CC(c2ccc(OC)c(OC)c2)C3)ccc1O (stereo not given)
  -15, -9%, -0.2%, -3%
16	COC(=O)C(CCCN1C(=O)c2ccccc2C1=O)(NC(C)=O)c1nnn(C)n1 (stereo not given)
  -3, 0%, 1.2%, 2%
14	O=C(Cn1cnc(S(=O)(=O)N2CCCC2)c1)Nc1cccc(F)c1
  /, -5%&-2%, 2.4%, 3%
11	CC1(c2nnc(Cc3ccccc3)o2)CC(c2ccccc2)=NO1 (stereo not given)
  /, /, -2.1%, -17%

(further entries)
cpd	Molecule	GLA inh pH 4.5	miR-21 reporter
21	O=C(/C=C/c1ccc(S(=O)(=O)N2CCOCC2)cc1)N(CCO)Cc1ccccc1	-3	0%
22	Cc1cc(C)nc(NC(=O)C(C)N2C(=O)c3ccccc3C2=O)n1 (stereo not given)	-9	-7%
23	O=C(CN1C(=O)NC2(CCCC2)C1=O)NCCC1=CCCCC1	0	-20%
24	O=c1cc(CN2CCN(c3ccccc3O)CC2)nc2sccn12	-4	-2%
25	Cc1ccc(NC(=O)C2CCCN(S(=O)(=O)c3c(C)noc3C)C2)cc1 (stereo not given)	-9[21.1 µM]	-3%&-2%
26	Cc1ccccc1Nc1c([N+](=O)[O-])cncc1[N+](=O)[O-]	/	8%
27	O=C(NC(=S)Nn1cnnc1)c1ccc(F)cc1Cl	/	4%
28	Cc1ccc(OC(=O)NC2CCS(=O)(=O)C2)cc1C (stereo not given)	1	1%
29	CC(C)Oc1cccc(C(=O)Nc2ccc(Br)cc2F)c1	5	-27%
30	Cc1nnc(SCC(=O)NCc2cccs2)[nH]c1=O	-5	-3%

cpd	Rango-impB inh	Rango release inh
21	-0.4%	-4%
22	-0.6%	4%
23	2.0%	7%
24	0.3%	?
25	-0.2%	14%
26	8.8%	2%
27	-1.3%	4%
28	6.1%	-1%
29	3.9%	16%
30	7.4%	6%

Later entries:
cpd	Molecule	GLA inh pH 4.5	miR-21 reporter
31	CCCCS(=O)(=O)Nc1ccc2c(c1)ncn2C1CCCCC1	0	-4%
32	Clc1ccc(C#Cc2cccnc2)cc1	/	/
33	OC(CNCC(c1ccc(Cl)cc1Cl)c1c[nH]c2ccccc12)c1ccccc1 (stereo not given)	-11	?
34	C=CCN1CCN(C(=O)c2c(-c3ccccc3)noc2C)CC1	/	0%
35	Cc1cccc(-n2ncc3c(N(CCO)CCO)ncnc32)c1	6	-64%
36	CCOC(=O)CN(c1ccccc1C)S(=O)(=O)c1ccc(Cl)cc1	/	2%
37	Cc1ccc(S(=O)(=O)N/N=C/c2cc(Br)ccc2O)cc1	0	-60%
38	Cc1c(C(=O)C(=O)NCCC2=CCCCC2)c2ccccc2n1C	8	-22%
39	CCCCC1(CC(=O)OC)C(=O)N(c2ccccc2)N(c2ccccc2)C1=O	-7	-1%
40	O=S(=O)(Nc1ccc(Oc2ncccn2)c(Cl)c1)c1ccc(Cl)cc1	4	-2%

cpd	Rango-impB inh	Rango release inh
31	7.7%	2%
32	0.1%	12%
33	1.3%	-4%
34	-3.1%	0%
35	0.5%	-1%
36	0.0%	3%
37	?	-3%
38	3.1%	-1%
39	-0.6%	-10%
40	2.2%	-1%

Next section:
cpd	Molecule	GLA inh pH 4.5	miR-21 reporter
41	CCCCn1ccnc1C	-2	0%
42	Cn1cccc1C(=O)NCC1COc2ccccc2O1 (stereo not given)	/	/
43	Cc1ccc(NC(=O)CN2C(=O)NC(C)(c3ccc(Cl)cc3)C2=O)cc1S(=O)(=O)N1CCOCC1 (stereo not given)	-5	20%
44	CC(C)c1cc(C(=O)Nc2cc(Cl)ccc2O)no1	-6	-47%
45	c1cncc(-c2nnc(-c3cccnc3)nn2)c1	6	26%
46	Clc1cccc(CSc2nnc(-c3c[nH]c4ccccc34)o2)c1	1	-19%
47	Cc1c(C(=O)Nc2cccc(C(F)(F)F)c2)oc2ccc(S(=O)(=O)N3CCOCC3)cc12	-4	-2%
48	O=C1CC(SCCc2nc3ccccc3[nH]2)C(=O)N1c1ccc(Cl)cc1 (stereo not given)	4	1%
49	CCN1C(=O)CS/C1=N\S(=O)(=O)c1ccc(Cl)cc1	-4	-2%
50	CN(Cc1c(C(=O)N/N=C/c2cccc(O)c2)nnn1-c1nonc1N)c1ccccc1	/	0%

cpd	Rango-impB inh	Rango release inh
41	0.3%	-8%
42	1.9%	18%
43	-0.5%	20%
44	1.1%	15%
45	-2.0%	-8%
46	0.2%	0%
47	-1.3%	-10%
48	0.3%	-5%
49	3.3%	4%
50	-3.5%	7%

Later entries
cpd	Molecule	GLA inh pH 4.5	miR-21 reporter
51	O=C(CCS(=O)(=O)c1cc(Br)cc2c1N(C(=O)C1CC1)CC2)NCc1ccco1	-12	-2%
52	CC(NC(=O)N1CCN(c2ccccc2F)CC1)c1ccc(F)c(F)c1 (stereo not given)	/	10%
53	S=c1[nH]nc(-c2cccs2)n1Cc1ccccc1	-5	-7%
54	C=CCn1c(SCCOc2ccc(OC)cc2)nnc1C(CO)NC(=O)c1ccc(OC)cc1 (stereo not given)	-6	0%
55	CN(C)c1ccc(C2(c3ccc(N(C)C)cc3)OC(=O)c3cc(N)ccc32)cc1	/	-5%
56	CSc1ncccc1C(=O)Nc1ccc(S(=O)(=O)N2CCCC2)cc1	/	/
57	Cc1c(/C=N/Nc2ccc(C(=O)O)cc2)c2ccccc2n1C	3	-53%
58	O=C(Nc1cccc(N=Cc2cc(Cl)cc(Br)c2O)c1)c1ccco1	6	-17%
59	Cc1coc2cc3oc(=O)c(CC(=O)N[C@@H](CC(C)C)C(=O)O)c(C)c3cc12	/	-5%
60	COc1ccc(C2CC(=O)C3=C(C2)NC(C)=C(C#N)C3c2ccc(N(C)C)cc2)cc1 (stereo not given)	-2	13%

cpd	Rango-impB inh	Rango release inh
51	2.7%	8%
52	-3.2%	4%
53	3.3%	21%
54	-4.0%	-9%
55	-1.2%	-5%
56	4.4%	1%
57	?	-8%
58	?	?
59	0.5%	7%
60	-1.1%	2%

Structural class, the compounds so far containing bromine
cpd	Molecule	GLA inh pH 4.5	miR-21 reporter
10	NS(=O)(=O)c1ccc(CCNC(=S)NC(=O)c2ccccc2Br)cc1	/	/
29	CC(C)Oc1cccc(C(=O)Nc2ccc(Br)cc2F)c1	5	-27%
37	Cc1ccc(S(=O)(=O)N/N=C/c2cc(Br)ccc2O)cc1	0	-60%
51	O=C(CCS(=O)(=O)c1cc(Br)cc2c1N(C(=O)C1CC1)CC2)NCc1ccco1	-12	-2%
58	O=C(Nc1cccc(N=Cc2cc(Cl)cc(Br)c2O)c1)c1ccco1	6	-17%

cpd	Rango-impB inh	Rango release inh
10	2.2%	-3%
29	3.9%	16%
37	?	-3%
51	2.7%	8%
58	?	?

The list continues:
cpd	Molecule	GLA inh pH 4.5	miR-21 reporter
61	O=C(O)c1nn(CCOc2ccc(Br)cc2)c(=O)c2ccccc12	/	-12%
62	O=C(COC(=O)c1ccccn1)Nc1cccc2ccccc12	-4	0%
63	Cc1cc(=O)[nH]c(N/N=C/c2ccc3c(c2)OCCO3)n1	7	-36%
64	CCCCNc1c(N)n(CCCC)c(=O)[nH]c1=O	3	-1%
65	O=C(O)c1ccc(CNC(=S)Nc2ccccc2)cc1	9	0%
66	CCN(C[C@H]1N[C@@](Cc2ccccc2)(C(=O)OC)[C@H]2C(=O)N(C)C(=O)[C@@H]12)S(=O)(=O)c1ccc(OC)cc1	/	/
67	O=C1NNC(=O)C2C3C=CC(C4CC34)C12 (stereo not given)	-4	-1%
68	CCCCN(C(=O)C1CCCC1)c1c(N)n(CC(C)C)c(=O)[nH]c1=O	/	/
69	O=C(CN(C(=O)c1csnn1)c1ccc2c(c1)OCCO2)NCc1ccc(F)cc1	/	-7%
70	O=C(COC(=O)CCC(NC(=O)OCc1ccccc1)C(=O)OCC(=O)Nc1ccccc1)Nc1ccccc1 (stereo not given)	-2	-2%

cpd	Rango-impB inh	Rango release inh
61	-1.6%	-3%
62	0.8%	-2%
63	4.5%	-9%
64	/	/
65	-2.1%	-11%
66	2.7%	12%
67	-2.6%	17%
68	-3.3%	7%
69	-0.5%	12%
70	-0.1%	0%

Sorted by value in Rango release inh (high to low): 3 from the list above
cpd	Molecule	GLA inh pH 4.5	miR-21 reporter
18	O=C(C1CCN(CC2CCCCC2)CC1)N1CCCC1	3	-3%
22	Cc1cc(C)nc(NC(=O)C(C)N2C(=O)c3ccccc3C2=O)n1 (stereo not given)	-9	-7%
63	Cc1cc(=O)[nH]c(N/N=C/c2ccc3c(c2)OCCO3)n1	7	-36%

cpd	Rango-impB inh	Rango release inh
18	1.7%	14%
22	-0.6%	4%
63	4.5%	-9%

(next part)
cpd	Molecule	GLA inh pH 4.5	miR-21 reporter
71	CCc1ccccc1NC1c2ccccc2C(=O)N1c1cccnc1 (stereo not given)	4	-3%
72	COc1ccc(C(=O)Nc2ccc([N+](=O)[O-])cn2)cc1OC	-3	-25%
73	CCN(CC)CCN(C(=O)CCS(=O)(=O)c1ccccc1)c1nc2cc(OC)c(OC)cc2s1	/	1%
74	C=C(CN(C)C)C(=O)c1ccc2c(c1)OCO2	/	/

cpd	Rango-impB inh	Rango release inh
71	-0.8%	-8%
72	0.2%	3%
73	-2.2%	0%
74	-3.1%	-2%
